RE007 growth inh – qHTS Assay for Inhibitors of the HIV-1 protein Vpr; S. pombe RE007 Vpr strain, BacTiter-Glo ATP luminescence, 24 h; control for the full effect not named in the record; Potency, µM (highest dose often 92.2 µM), for the others: at the highest dose activity change, negative = less growth; 0.21% of 360,000 active; AID 651644, 2012; active = well fitted falling curve with a large enough effect; inconclusive = small, poorly fitted or top-dose-only effect; inactive = no such curve, though single readings can be large or run the other way;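 note: % is set by controls: 0 for no effect and ±100 for the full control effect; nearly all actives have a fitted effect of over 50% in size; the assay follows cell death caused by Vpr and the record does not say whether a fall means rescue or toxicity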
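Fission yeast RE007 carrying one integrated HIV-1 vpr copy, seeded at OD 0.01 in PMG+AL medium with 23 nL pinned compound. Grown 24 h at 30 degrees; viability read by BacTiter-Glo luminescence after 5 min.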
Cruzain inh noDet – qHTS Assay for Promiscuous and Specific Inhibitors of Cruzain (without detergent); Potency, µM, for the others: max response, negative = inhibition, actives largely listed as inhibitors; Cruzipain (Trypanosoma cruzi), P25779; 2.3% of 200,000 active; purified cruzain, Z-FR-AMC fluorescence, no detergent;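 note: plate controls were enzyme without inhibitor for no effect and buffer without enzyme for full effect; nearly all actives have a fitted effect of over 40% in size; top concentration of the series not given in the record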
Target sequence (P25779 123-467 limits assumed): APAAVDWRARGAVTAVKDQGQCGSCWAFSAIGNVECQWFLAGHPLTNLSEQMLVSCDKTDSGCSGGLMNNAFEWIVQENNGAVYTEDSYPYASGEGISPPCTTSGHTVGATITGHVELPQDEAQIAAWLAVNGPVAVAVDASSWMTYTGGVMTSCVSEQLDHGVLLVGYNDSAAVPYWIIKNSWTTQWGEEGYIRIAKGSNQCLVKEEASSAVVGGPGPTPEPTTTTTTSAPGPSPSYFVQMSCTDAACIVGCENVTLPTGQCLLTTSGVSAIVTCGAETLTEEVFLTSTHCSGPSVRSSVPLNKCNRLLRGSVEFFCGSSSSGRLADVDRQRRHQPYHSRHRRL
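Purified cruzain at 1.5 nM, pre-incubated 15 min with compound at room temperature in 100 mM sodium acetate pH 5.5, 5 mM DTT, 0.00005% Triton X-100. Reaction started with 2 uM Z-FR-AMC; AMC fluorescence increase over 60 s gives rate.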
StopGo reporter – High Throughput Screening for Foot and Mouth Disease Virus Antivirals. human cells with a luciferase reporter of 2A StopGo recoding; control for the full effect not named in the record. Potency, µM (titrated, usually from 57.9 µM), for inactives: top-dose signal change, negative = less light. 1.2% of 410,000 active; active = well fitted falling curve with a large enough effect; inconclusive = small, poorly fitted or top-dose-only effect; inactive = no such curve, though single readings can be large or run the other way; tested in HEK293T cells; note: % is set by controls: 0 for no effect and ±100 for the full control effect; nearly all actives have a fitted effect of over 45% in size; luciferase light after 4 h
NS1 function inh – qHTS Assay for Inhibitors of Influenza NS1 Protein Function; S. cerevisiae slowed by influenza A NS1, growth recovery by OD600; Potency, µM (titrated, usually from 46.1 µM), for the others: top-dose activity, positive = more growth; 0.4% of 270,000 active; AID 2326, 2010; active means well fitted rising curve with a large enough effect; inconclusive means small, poorly fitted or top-dose-only effect; inactive means no such curve, though single readings can be large or run the other way; note: nearly all actives have a fitted effect of over 50% in size
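OD600 was taken as the measure of yeast growth restored by compound in an NS1-expressing S. cerevisiae strain. Cells had been washed out of glucose medium and diluted 1:100 into galactose -URA medium, pH 6.0.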
SARS PLP yeast – qHTS of Yeast-based Assay for SARS-CoV PLP; S. cerevisiae expressing SARS-CoV PLpro, growth rescue; control for the full effect not named in the record; Potency, µM (doses to about 32.9 µM), for the others: at the top dose activity, positive = growth rescue; 0.19% of 330,000 active; active means well fitted rising curve with a large enough effect; inconclusive means small, poorly fitted or top-dose-only effect; inactive means no such curve, though single readings can be large or run the other way; note: 0% is about no effect; nearly all actives have a fitted effect of over 55% in size; growth read by luminescence after 48 h
MARV entry inh – qHTS for inhibitors of binding or entry into cells for Marburg Virus; Potency, µM (top dose mostly 37.8 µM), for the others: at the highest dose activity change, negative = inhibition, actives largely listed as inhibitors; AID 540276, 2011; 1.8% of 300,000 active; Marburg virus pseudotyped entry inhibition, cell reporter; control for the full effect not named in the record; about a third of the inactives were read at about 46 µM; active = well fitted inhibition curve with a large enough effect; inconclusive = small, poorly fitted or top-dose-only effect, or effect the other way; inactive = flat fitted curve, though single readings scatter; tested in HEK293 cells; about a fifth of its hits are not listed in these tables; note: % is set by controls: 0 for no effect and ±100 for the full control effect; luciferase read-out
Cruzain Triton – qHTS Assay for Promiscuous and Specific Inhibitors of Cruzain (with detergent); Cruzipain (Trypanosoma cruzi), P25779; purified cruzain, Z-FR-AMC fluorescence, 0.01% Triton; Potency, µM, inactives show max response, negative = inhibition, actives largely listed as inhibitors; 0.43% of 200,000 active; AID 1478, 2009;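 note: plate controls were neutral wells for no effect and buffer without enzyme for full effect; nearly all actives have a fitted effect of over 40% in size; top concentration of the series not given in the record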
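Purified cruzain (1.5 nM final) was preincubated with compounds for 15 min at room temperature in 100 mM sodium acetate pH 5.5, 5 mM DTT, 0.01% Triton X-100. Reaction started with 2 uM Z-FR-AMC; AMC fluorescence change over 60 s gave activity.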
LASV entry inh – qHTS for Inhibitors of binding or entry into cells for Lassa Virus | Lassa virus pseudotype entry inhibition, cell reporter; control for the full effect not named in the record | Potency, µM (doses to about 37.9 µM), for the others: top-dose activity change, negative = inhibition, usual class: inhibitors | 1.2% of 300,000 active; active means well fitted inhibition curve with a large enough effect; inconclusive means small, poorly fitted or top-dose-only effect, or effect the other way; inactive means flat fitted curve, though single readings scatter; tested in HEK293 cells; note: % is set by controls: 0 for no effect and ±100 for the full control effect; nearly all actives have a fitted effect of over 50% in size; luciferase read-out
An asterisk follows results filed as active; ? = inconclusive; nt = no result given; [ ] = remark or other dose. Unless noted, calls come from the whole dose curve; as a rule, active = well fitted curve in the direction sought with a large enough effect; inconclusive = small, poorly fitted or top-dose-only effect, or another doubt; inactive = no such curve, though single readings can be large; an effect the other way counts as inactive or inconclusive. Potency is the fitted concentration of half-maximal effect.

SMILES	RE007 growth inh	Cruzain inh noDet	StopGo reporter	NS1 function inh	SARS PLP yeast	MARV entry inh	Cruzain Triton	LASV entry inh
Cc1nn(C)c(C)c1N1C(=O)c2cccc3c(N)ccc(c23)C1=O	1%	-15%	-17%	?	3%	6%	-9.1%	-1%
CC1=C(C#N)C(NC(=O)c2ccccc2)(C(F)(F)F)C(=O)N1 (stereo not given)	nt	1%	6%	nt	nt	-24%[46.1 µM]	-0.5%	?
CN=C1S/C(=C\c2ccc(SC)cc2)C(=O)N1C	-22%	nt	21%	-9%	-2%	3%[46.1 µM]	nt	?
Cc1cc2oc(C(=O)Nc3ccc(S(=O)(=O)Nc4onc(C)c4C)cc3)cc(=O)c2cc1C	nt	9%	-8%	nt	nt	?	-10%	6%[46.1 µM]
CCOc1ccc(-n2c(Cc3cc(=O)[nH]c(=O)[nH]3)nnc2SCc2cccnc2)cc1	nt	-5%	nt	2%	5%	nt	-0.9%	nt
COc1ccc(OC)c2[nH]c(=O)c(CCNC(=O)c3cc4ccccc4o3)cc12	2%	?	?	-40%	-7%	nt	1.8%	nt
S=c1[nH]nc(-c2ccncc2)n1/N=C/C(Cl)=C\c1ccccc1	11%	nt	-11%	-3%	-2%	nt	nt	nt
Cc1ccc(NC(=O)CN2CCc3cc4c(cc3C2)OCCCO4)cc1	-1%	nt	-9%	-26%	-1%	2%[46.1 µM]	nt	?
O=C(NCc1ccco1)c1ccc(=O)oc1	14%	-17%	-23%	-6%	3%	6%	-9.0%	0%
COc1ccc(CCCNC(=O)C2CCC(=O)N(CCc3cccc(F)c3)C2)cc1 (stereo not given)	0%	nt	-9%	-16%	1%	15%	nt	?
CCOC(=O)C1CCN(C(=O)c2c(C)oc3c2C(=O)c2ccccc2C3=O)CC1	-10%	24%	28µM*	10%	9%	-36%	-2.2%	?
COc1cccc(NC(=O)C2CC(=O)OC23CCOC(C)(C)C3)c1 (stereo not given)	3%	1%	6%	-1%	2%	-12%	1.4%	5%
N#CCC(=O)Nc1ccc(C(=O)N2CCN(S(=O)(=O)c3ccc4ccccc4c3)CC2)cc1	-1%	nt	-12%	23%	0%	20%[46.1 µM]	nt	30%[46.1 µM]
CC1CCN(CCC(=O)NN)CC1	0%	nt	-14%	nt	-2%	2%[46.1 µM]	nt	0%
O=C(NCCC(=O)N1CCN(c2ccccn2)CC1)c1ccc(Cl)cc1	-10%	nt	-11%	nt	-4%	?	nt	-3%
Cc1nnc(NC(=O)Oc2ccccc2)s1	-5%	-3%	nt	1%	2%	1%	1.9%	3%
CNC(=O)N(O)C1N(NC(=O)Nc2ccccc2)C(=S)SC1(C)C (stereo not given)	-5%	nt	-7%	nt	nt	?	nt	7%
Cc1cccc(N(C(=O)CNC(=O)c2cccs2)C(C(=O)NC2CCCC2)c2cccnc2)c1 (stereo not given)	8%	8%	43%[activator]	13%	1%	3%	0.6%	-4%
Cc1ccc(NC(=O)CN2C(=O)S/C(=C/c3ccc(O)c([N+](=O)[O-])c3)C2=O)cc1C	-9%	nt	-23%	-5%	0%	3%[46.1 µM]	nt	4%
COc1cccc(-c2nc(N3CCCCC3)c3ccccc3n2)c1O	-13%	nt	-22%	nt	nt	?	nt	-8%
CCOC(=O)C1CCCN(S(=O)(=O)c2cccs2)C1 (stereo not given)	-6%	-9%	nt	?	-5%	4%	3.5%	8%
Cc1ccc(C(=O)Nc2nnc(S(=O)(=O)N3c4ccccc4CC3C)s2)cc1 (stereo not given)	nt	1%	-17%	nt	nt	nt	-1.8%	-2%[46.1 µM]
Cc1ccc2nc(CSc3nnc4ccccn34)cc(=O)n2c1	6%	nt	34%[activator]	nt	-1%	11%[46.1 µM]	nt	17%
CC1CCN(C(=O)c2c(NC(=O)c3ccccc3F)sc3c2CCC(C(C)(C)C)C3)CC1 (stereo not given)	nt	8%	-3%	nt	nt	-1%[46.1 µM]	-1.0%	3%[46.1 µM]
Cc1ccccc1CN1CCC(CNC(=O)C2CCCN(c3ncnc4c3nc3n4CCCCC3)C2)CC1 (stereo not given)	-8%	nt	-14%	12%	0%	?	nt	-7%[46.1 µM]

The closing 6 entries of the section before lead into the next.
SMILES	RE007 growth inh	Cruzain inh noDet	StopGo reporter	NS1 function inh	SARS PLP yeast	MARV entry inh	Cruzain Triton	LASV entry inh
COc1cccc(-c2nc(N3CCCCC3)c3ccccc3n2)c1O	-13%	nt	-22%	nt	nt	?	nt	-8%
CCOC(=O)C1CCCN(S(=O)(=O)c2cccs2)C1 (stereo not given)	-6%	-9%	nt	?	-5%	4%	3.5%	8%
Cc1ccc(C(=O)Nc2nnc(S(=O)(=O)N3c4ccccc4CC3C)s2)cc1 (stereo not given)	nt	1%	-17%	nt	nt	nt	-1.8%	-2%[46.1 µM]
Cc1ccc2nc(CSc3nnc4ccccn34)cc(=O)n2c1	6%	nt	34%[activator]	nt	-1%	11%[46.1 µM]	nt	17%
CC1CCN(C(=O)c2c(NC(=O)c3ccccc3F)sc3c2CCC(C(C)(C)C)C3)CC1 (stereo not given)	nt	8%	-3%	nt	nt	-1%[46.1 µM]	-1.0%	3%[46.1 µM]
Cc1ccccc1CN1CCC(CNC(=O)C2CCCN(c3ncnc4c3nc3n4CCCCC3)C2)CC1 (stereo not given)	-8%	nt	-14%	12%	0%	?	nt	-7%[46.1 µM]
Cc1cccc(C(=O)Nc2nnc(Cc3c[nH]c4ccccc34)s2)c1	-1%	-17%	nt	6%	3%	-27%	-19%	1%
CCN(CCCNC(=O)CN(C)S(=O)(=O)c1cccc2nsnc12)c1ccccc1	11%	3%	0%	-12%	-1%	1%	-2.0%	-12%
COc1cc(/C=C(/C#N)c2ccc(F)cc2)ccc1Oc1ccc([N+](=O)[O-])cn1	-12%	?	?	10%	18%	?	-4.5%	?
Cc1ccc2oc(C(=O)N3CCN(C)C[C@@H]3C(C)C)c(C)c2c1	2%	nt	33%[activator]	-7%	2%	nt	nt	nt
Cc1ccc(C(=O)N2CCCC2)cc1Br	1%	-1%	-9%	4%	-1%	8%	-1.5%	-13%
COC(=O)c1cc(O)cc(OC)c1Oc1cc(C)cc(O)c1C(=O)O	1%	nt	0%	0%	-7%	nt	nt	nt
COc1ccc2cc(C(=O)NCc3ccc4c(c3)CCN4C(=O)c3ccc(C)cc3)[nH]c2c1	nt	13µM*	12%	nt	nt	nt	-1.6%	1%[46.1 µM]
O=[N+]([O-])c1cc(S(=O)(=O)N2CCCC2)ccc1NCCCN1CCOCC1	-9%	nt	1%	nt	6%	1%[46.1 µM]	nt	3%
COc1ccc(-c2nc3scc(CCNC(=O)Cc4ccc(F)cc4)n3n2)cc1	nt	-7%	-13%	nt	nt	nt	-1.8%	11%[46.1 µM]
CCc1ccccc1NC(=O)Cn1c(=O)n(CCCS(=O)(=O)C2CCCCC2)c(=O)c2ccccc21	nt	-13%	-7%	nt	nt	2%[46.1 µM]	4.1%	1%[46.1 µM]
Cc1ccc(S(=O)(=O)Nc2nc(C)c(C(=O)NNS(=O)(=O)c3ccccc3)s2)cc1	-24%	nt	12%	-4%	-1%	-5%	nt	-5%
COCCNC(=O)CN(Cc1ccccc1)C(=O)CCC(=O)Nc1nccs1	2%	nt	-11%	3%	5%	7%[46.1 µM]	nt	5%
COc1ccc(NC(=O)CN(C)CC(=O)NCC(=O)Nc2ccc(F)cc2)cc1	44%	nt	4%	nt	-2%	-10%	nt	2%
CC(C)NC(=S)N1CCN(S(C)(=O)=O)CC1	9%	0%	-10%	-6%	12%	6%	3.0%	9%
Cc1cnc(C(=O)OCC(=O)NC2CCCC(C)C2C)cn1 (stereo not given)	-2%	3%	-6%	-2%	-3%	-9%	0.0%	12%
CCOc1cc(C2/C(=C(\O)c3cc(C)ccc3C)C(=O)C(=O)N2CCN(C)C)ccc1O (stereo not given)	5%	0%	-2%	-4%	18%	4%[46.1 µM]	0.1%	-6%
O=C(Nc1ccccc1)Nc1cccc(-c2nnco2)c1	-13%	nt	55%[activator]	-4%	-1%	nt	nt	nt
O=C(CCCc1ccccc1)NC1CCSC1=O (stereo not given)	-8%	4%	nt	-8%	-4%	22%	1.5%	1%
NS(=O)(=O)c1ccc(NC(=O)COC(=O)Cc2ccc(Cl)cc2)cc1	19%	nt	-18%	2%	-1%	-1%[46.1 µM]	nt	20%
CCc1cccc(CC)c1NC(=O)CSc1nnc(C2CC2)n1C	8%	nt	8%	-15%	-2%	-2%[46.1 µM]	nt	6%[46.1 µM]
CCC1CCCCN1C(=O)c1noc(C(C)C)c1[N+](=O)[O-] (stereo not given)	10%	-9%	-2%	3%	14%	-3%	-0.2%	-1%
O=c1[nH]c(NCCO)nc2c1C1(CCCC1)Cc1ccccc1-2	-18%	8%	-13%	0%	4%	1%	-9.0%	?
COC(=O)c1sc(-c2ccc(C(C)(C)C)cc2)cc1NC(=O)c1ccccc1C(=O)O	9%	nt	-18%	4%	-11%	nt	nt	nt
C=CCN(C(=O)c1cccc(C(F)(F)F)c1)C1(C(=O)Nc2ccccc2)CCN(C(C)C)CC1	-12%	nt	-9%	2%	-1%	?	nt	-2%
COC(=O)C1=C(C)C(c2ccc(OC)cc2OC)NC(=O)N1 (stereo not given)	-9%	-10%	-10%	-8%	?	-1%	2.4%	-9%
Cc1ccc(NC(=S)/C(=C(\[O-])c2ccc(C)c([N+](=O)[O-])c2)[n+]2ccccc2)cc1C	nt	25µM*	nt	1%	-13%	3%	-6.3%	nt
COc1ccccc1OCC(=O)Nc1ccc(C(N)=O)cc1	0%	-8%	8%	-2%	-4%	-2%	3.7%	2%
